Cruzain inh Det: cruzain (T. cruzi) inhibition with detergent; purified cruzain, Z-FR-AMC fluorescence, 0.01% Triton; Potency, µM, inactives show max response, negative = inhibition, actives largely listed as inhibitors; AID 1478; P25779; hit rate 0.43% among 200,000; active means well fitted curve in the direction sought with a large enough effect; inconclusive means small, poorly fitted or top-dose-only effect, or another doubt; inactive means no such curve, though single readings can be large; an effect the other way counts as inactive or inconclusive;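 further: plate controls were neutral wells for no effect and buffer without enzyme for full effect; nearly all actives have a fitted effect of over 40% in size; top concentration of the series not given in the record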
Target sequence (P25779 123-467 limits assumed): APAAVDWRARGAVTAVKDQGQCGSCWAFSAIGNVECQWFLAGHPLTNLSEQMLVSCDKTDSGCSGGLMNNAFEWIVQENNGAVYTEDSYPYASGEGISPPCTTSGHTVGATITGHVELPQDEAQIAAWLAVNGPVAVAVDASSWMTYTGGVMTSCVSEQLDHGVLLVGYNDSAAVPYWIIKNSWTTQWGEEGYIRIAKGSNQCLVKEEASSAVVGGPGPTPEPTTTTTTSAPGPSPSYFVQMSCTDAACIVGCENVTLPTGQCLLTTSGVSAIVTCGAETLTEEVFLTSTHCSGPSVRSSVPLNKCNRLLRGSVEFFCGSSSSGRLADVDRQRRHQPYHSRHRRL
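Steps: dispense cruzain (1.5 nM final) in acetate buffer pH 5.5 with DTT and 0.01% Triton X-100; pin-transfer compounds; incubate 15 min RT; add Z-FR-AMC (2 uM final); read fluorescence every 30 s, using the 60 s intensity change.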
LASV entry inh: inhibitors of Lassa virus binding or cell entry | Lassa virus pseudotype entry inhibition, cell reporter; control for the full effect not named in the record | Potency, µM (series often up to 37.9 µM), without a hit: at the top dose activity change, negative = inhibition, most hits filed as inhibitors | hit rate 1.2% among 300,000 | AID 540256; active means well fitted inhibition curve with a large enough effect; inconclusive means small, poorly fitted or top-dose-only effect, or effect the other way; inactive means flat fitted curve, though single readings scatter; tested in HEK293 cells; further: on the % scale 0 is the no-effect control and ±100 the full control effect; nearly all actives have a fitted effect of over 50% in size; luciferase read-out
RE007 growth inh: less growth of the S. pombe RE007 Vpr strain. S. pombe RE007 Vpr strain, BacTiter-Glo ATP luminescence, 24 h; control for the full effect not named in the record. Potency, µM (top dose mostly 92.2 µM), inactives show top-dose activity change, negative = less growth. hit rate 0.21% among 360,000; active = well fitted falling curve with a large enough effect; inconclusive = small, poorly fitted or top-dose-only effect; inactive = no such curve, though single readings can be large or run the other way;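 further: on the % scale 0 is the no-effect control and ±100 the full control effect; nearly all actives have a fitted effect of over 50% in size; the assay follows cell death caused by Vpr and the record does not say whether a fall means rescue or toxicity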
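Fission yeast strain RE007, carrying one chromosomally integrated HIV-1 vpr copy, was seeded at OD 0.01 in PMG+AL medium with 23 nL pinned compound. After 24 h at 30 °C and 99% humidity, viability was read by BacTiter-Glo luminescence.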
NS1 inh: influenza NS1 inhibition; S. cerevisiae slowed by influenza A NS1, growth recovery by OD600; Potency, µM (highest dose often 46.1 µM), for the others: at the highest dose activity, positive = more growth; hit rate 0.4% among 270,000; AID 2326; further: actives are rising curves; nearly all actives have a fitted effect of over 50% in size
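Read-out: OD600 growth recovery of NS1-expressing budding yeast. Cells grown overnight at 30C in -URA glucose medium, washed, resuspended and diluted 1:100 in 2% galactose assay medium, pH 6.0. Same strain lacking NS1 served as positive control.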
SARS PLP yeast: SARS-CoV PLP inhibition in yeast. S. cerevisiae expressing SARS-CoV PLpro, growth rescue; control for the full effect not named in the record. hit rate 0.19% among 330,000. Potency, µM (highest dose often 32.9 µM), without a hit: top-dose activity, positive = growth rescue; further: 0% is about no effect; nearly all actives have a fitted effect of over 55% in size; growth read by luminescence after 48 h
2A StopGo: lowers the luciferase signal of an FMDV 2A StopGo reporter; AID 1159524; Potency, µM (highest dose often 57.9 µM), for inactives: top-dose signal change, negative = less light; human cells with a luciferase reporter of 2A StopGo recoding; control for the full effect not named in the record; hit rate 1.2% among 410,000; active = well fitted falling curve with a large enough effect; inconclusive = small, poorly fitted or top-dose-only effect; inactive = no such curve, though single readings can be large or run the other way; tested in HEK293T cells; further: on the % scale 0 is the no-effect control and ±100 the full control effect; nearly all actives have a fitted effect of over 45% in size; luciferase light after 4 h
Cruzain noTriton: inhibitors of Trypanosoma cruzi cruzain without detergent. P25779. purified cruzain, Z-FR-AMC fluorescence, no detergent. AID 1476. hit rate 2.3% among 200,000. Potency, µM, inactives show max response, negative = inhibition, usual class: inhibitors; active means well fitted curve in the direction sought with a large enough effect; inconclusive means small, poorly fitted or top-dose-only effect, or another doubt; inactive means no such curve, though single readings can be large; an effect the other way counts as inactive or inconclusive;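 further: plate controls were enzyme without inhibitor for no effect and buffer without enzyme for full effect; nearly all actives have a fitted effect of over 40% in size; top concentration of the series not given in the record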
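Detergent-free condition (0.00005% Triton X-100) in acetate buffer pH 5.5 with DTT. 1.5 nM enzyme and compound were pre-mixed 15 min, then 2 uM Z-FR-AMC substrate added; reaction progress from fluorescence change between first and third reads (60 s).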
MARV entry inh: Marburg virus entry inhibition; Marburg virus pseudotyped entry inhibition, cell reporter; control for the full effect not named in the record; about a third of the inactives were read at about 46 µM; Potency, µM (doses to about 37.8 µM), for inactives: top-dose activity change, negative = inhibition, actives largely listed as inhibitors; hit rate 1.8% among 300,000; active = well fitted inhibition curve with a large enough effect; inconclusive = small, poorly fitted or top-dose-only effect, or effect the other way; inactive = flat fitted curve, though single readings scatter; tested in HEK293 cells; about a fifth of its hits are not listed in these tables; further: on the % scale 0 is the no-effect control and ±100 the full control effect; luciferase read-out
* marks the source's active call; other numbers are inactive results; ? = inconclusive; nt = no result given; & = joins results of further samples; [ ] = dose if it differs, or a comment. Unless noted, the call rests on the fitted dose curve; in most records, active means well fitted rising curve with a large enough effect; inconclusive means small, poorly fitted or top-dose-only effect; inactive means no such curve, though single readings can be large or run the other way. Potency means the concentration at half of the fitted maximal effect.

SMILES	Cruzain inh Det	LASV entry inh	RE007 growth inh	NS1 inh	SARS PLP yeast	2A StopGo	Cruzain noTriton	MARV entry inh
Cc1ccc(NS(=O)(=O)c2cccc(C(=O)N3CCCC(C)C3)c2)cc1 (configuration not stated)	nt	?	-4%	nt	5%	20%	nt	-22%
COc1cc2c(cc1OC)CN(C(=S)NC(=O)c1ccccc1)CC2	nt	5%	1%	1%	-1%	-18%	nt	?
CCN(CC(=O)NCc1cccs1)C(=O)c1cc(S(=O)(=O)N2CCCCC2)ccc1Cl	nt	1%	8%	nt	nt	0%	nt	-9%
Cn1c(Cc2ccccc2)nnc1SCC(=O)Nc1cccc(S(=O)(=O)NC2=NCCCCC2)c1	nt	1%	15%	nt	0%	-6%	nt	-21%
O=C(NC1(C(F)(F)F)C(=O)Nc2c1c(=O)[nH]c(=O)n2-c1ccc(Cl)cc1)c1ccccc1F (configuration not stated)	0.1%	-10%[46.1 µM]	nt	nt	nt	-12%	-14%	nt
CC1=NN(C(C#N)c2ccccc2)C(C)(C)C1 (configuration not stated)	nt	nt	15%	-1%	0%	1%	nt	nt
COc1ccccc1CCNS(=O)(=O)c1c(C)n(C)c(=O)n(C)c1=O	0.6%	nt	14%	?	0%	-8%	-6%	nt
CC(C)(O)C#Cc1ccc(CN2CCN(C3CCCCC3)C(CCO)C2)cc1 (configuration not stated)	nt	1%	-1%	2%	0%	-15%	nt	-28%
CCn1nc(C)c(CN2CCC(C(=O)Nc3cccc(-c4cccc(F)c4)c3)CC2)c1C	nt	nt	3%	16%	6%	-23%	nt	nt
C=CCNC(=S)NNC(=O)c1ccccc1	1.5%	12%	-3%	12%	7%	5%	7%	1%
CCOC(=O)c1oc2cc(OCC(N)=O)ccc2c(=O)c1-c1ccc(OC)c(OC)c1	5.6%	5%	5%	1%&-7%	1%&1%	7%	1%	1%&1%
O=C(NCCc1ccc(Cl)cc1)C1CCN(S(=O)(=O)N2CCC3(CC2)OCCO3)CC1	4.0%	10%	5%	-1%	-1%	nt	-1%	1%
Cc1cnc2c(c1SCC(=O)N(C)c1ccccc1)c(=O)n(C)c(=O)n2C	-1.0%	21%[46.1 µM]	nt	nt	nt	-12%	2%	nt
COc1ccc(CNC(=O)CCc2c(C)nc3cc(-c4ccccc4OC)nn3c2C)cc1	nt	nt	21%	-11%	-5%	-23%	nt	nt
O=C(c1cc2sccc2n1Cc1ccccc1)N1CCN(c2nc3ccccc3s2)CC1	-4.4%	?	-1%	?	-16%	?	7.9µM*	?
Cc1nc(C(=O)N2CCc3c([nH]c4ccccc34)C2c2cc(F)ccc2F)cs1 (configuration not stated)	nt	?	21%	-9%	-1%	11%	nt	?
O=C(CSc1nc(=O)n2ccccc2n1)N1CCCc2ccccc21	nt	23%	0%	nt	1%	-7%	nt	?
Cc1ccc(CC(=O)NNC(=O)c2ccncc2)cc1C	nt	-5%	-9%	nt	-3%	-25%	nt	?
CC(=O)N1CCc2cc(S(=O)(=O)NCCC(=O)NCCc3ccc(Cl)cc3)ccc21	nt	nt	-8%	1%	-1%	?	nt	nt
Cc1ccc(-c2nnc(Nc3ccc(OCC(N)=O)cc3)c3ccccc23)cc1S(N)(=O)=O	nt	6%[46.1 µM]	2%	-3%	-1%	18%	nt	?
CC(C)NC(=O)CN1CCN(Cc2nc(C(c3ccccc3)c3ccccc3)no2)CC1	nt	3%	-28%	1%	0%	1%	nt	-3%[46.1 µM]
COc1cc(Cl)ccc1NC(=S)N(CCCN1CCOCC1)Cc1cn(C)c2ccccc12	-3.5%	?	1%	-12%	2%	11%	-3%	?
Cc1ccc(S(=O)(=O)c2cnc(SCC(=O)Nc3cccc(Cl)c3)nc2N)cc1C	0.4%	-4%[46.1 µM]	nt	nt	nt	?	-10%	?
Cc1ccc(N=Cc2c(O)cc(C)oc2=O)c(C)c1	nt	15%	-13%	nt	0%	-17%	nt	-3%[14.2 µM]
CC(=O)Nc1nonc1NC(=O)CSc1nc2ccccc2o1	2.8%	20%	1%	-2%	5%	-11%	-3%	-3%
CC(=O)Nc1ccc(NC(=O)c2ccc3c(c2)CCN3S(=O)(=O)c2ccc(C)cc2)cc1	0.4%	12%[46.1 µM]	nt	nt	nt	?	12%	7%[46.1 µM]
COc1cc(Cl)c(S(=O)(=O)NCCN2CCOCC2)cc1Cl	1.5%	23%	15%	1%	2%	38%[activator]	5%	1%
CC(C)CN1CCC(CNC(=O)CCc2nnc(Cc3c[nH]c4ccccc34)o2)CC1	nt	11%[46.1 µM]	-12%	2%	1%	4%	nt	?
Cc1ccc(-c2csc3ncnc(SCC(=O)c4ccc5c(c4)OCCO5)c23)cc1	4.1%	-8%	-9%	21%	6%	-25%	10µM*	-6%
CSc1ccccc1C(=O)Nc1cccc(C)c1	-1.4%	?	?	-7%	3%	28%	3%	?
Cc1ccc(NC(=O)Cn2c(=O)n(CC(=O)NCCc3ccccc3)c(=O)c3ccccc32)cc1	0.8%	1%[46.1 µM]	nt	nt	nt	-24%	2%	5%[46.1 µM]
C/C(=N\NC(=O)c1cc(C2CC2)nc2ccccc12)c1ccc(C)s1	-2.3%	1%	9%	3%	1%	8%	2%	?
CSc1nc2ccccc2n1CC(=O)N1CCCCC1	6.2%	11%	5%	1%	-3%	-15%	11%	2%
Cc1cccc(-c2nnc(SCCC(=O)N3CCOCC3)o2)c1	0.9%	?	-4%	-2%	8%	-20%	15%	3%
CC(=O)N(C)c1nnc(-c2cnccn2)s1	-0.3%	9%	1%	4%	4%	14%	-12%	-1%
CCOC(=O)c1sc2nc(C)n(N)c(=O)c2c1C	nt	4%[46.1 µM]	23%	nt	0%	5%	nt	7%[46.1 µM]
O=C(COC(=O)Cn1cnc2ccccc2c1=O)NCC12CC3CC(CC(C3)C1)C2	-3.7%	5%	-8%	-25%	-8%	-15%	1%	3%
C=Cn1c(C(=O)O)cc(CC)c1-c1ccccc1	1.8%	5%	11%	-60%	-7%	0%	-2%	?
COc1ccc(CN2CCCC(C(=O)N3CCCCC3)C2)c(OC)c1 (configuration not stated)	nt	-9%	-7%	-1%	3%	-8%	nt	-27%
CCOC(=O)c1c(NC(=O)Cn2ccsc2=N)sc(C)c1C	nt	?	-3%	nt	5%	?	nt	?
CCOC(=O)N1CCN(C(=O)c2ccc(CN(c3ccc(C)c(C)c3)S(C)(=O)=O)cc2)CC1	-1.1%	-1%	-1%	-3%	2%	?	23%	-7%
Cc1cccc(NC(=O)CSc2nnc([C@@H]3CCCN3C(=O)OC(C)(C)C)o2)c1C	4.0%	-4%	18%	-3%	0%	-18%	4%	-5%[46.1 µM]
Cc1ccc(OCC(=O)Nc2nnc(SCc3cc(=O)n4cccc(C)c4n3)s2)cc1	2.1%	2%[46.1 µM]	nt	nt	nt	-10%	-10%	nt
O=C(Nc1nc2ccccc2[nH]1)C1CCN(C(=O)c2ccc(F)cc2)CC1	nt	9%	-7%	nt	4%	1%	nt	-7%[46.1 µM]
Cc1cc(C)cc(NC(=S)N2CCN(c3ncccn3)CC2)c1	-1.3%	nt	-5%	1%	1%	15%	9%	nt
CCn1nnnc1SCC(=O)Nc1ccc2c(c1)OCCO2	-0.5%	4%	2%	-2%	?	37%[activator]	-14%	-21%[46.1 µM]
O=C(OCCN1C(=O)c2ccccc2C1=O)c1cnccn1	5.7%	20%	10%	5%	-3%	0%	-8%	8%
Cc1ccccc1NC(=O)CCS(=O)(=O)c1cccc2nonc12	nt	-8%[46.1 µM]	-17%	4%	0%	11%	nt	1%[46.1 µM]
Cc1sc2nc(SCC(=O)OC(C)C)n(C)c(=O)c2c1C	-7.0%	24%	-5%	4%	-5%	-15%	4%	6%
COC(=O)c1ccc(NC(=O)CSc2ccc(-c3ccccn3)nn2)cc1	nt	8%	10%	-14%	-3%	1%	nt	-4%
O=C1CCN(C(=O)c2cccs2)c2ccccc21	-4.3%	-25%	5%	-7%	-1%	15%	-2%	3%
O=C(c1ccc([N+](=O)[O-])s1)N1CCCc2ccccc21	nt	?	?	6%	-15%	-18%	nt	?
CCC1CCc2nc3sc(C(=O)Nc4ccc(F)c(Cl)c4)c(N)c3cc2C1 (configuration not stated)	-1.7%	-4%[46.1 µM]	nt	nt	nt	17%	12%	3%[46.1 µM]
COc1ccc(CC(=O)Nc2ccc(S(=O)(=O)Nc3ncccn3)cc2)cc1	1.0%	7%	2%	11%	-2%	-14%	1%	-14%
O=S(=O)(Cc1ccccc1Cl)N1CCCC1	nt	4%	-6%	2%	1%	-4%	nt	16%[46.1 µM]
O=C(/C=C/c1ccccc1)c1cc(Br)ccc(=O)c1O	-19%	?	-22%	-181%	22µM*	?	-13%	20µM*
Cc1cccc(N2CCN(Cc3nc(-c4ccc(F)cc4F)oc3C)CC2)n1	nt	5%[46.1 µM]	-18%	-1%	-2%	-11%	nt	-3%[46.1 µM]
Cn1c2c(c(=O)n(C)c1=O)C(c1ccccc1F)C(C#N)=C(N)O2 (configuration not stated)	nt	15%[46.1 µM]	8%	nt	1%	-6%	nt	21%[46.1 µM]
COC(=O)C(NS(=O)(=O)c1ccc(F)cc1)c1ccccc1 (configuration not stated)	nt	4%	-2%	3%	0%	-4%	nt	-22%[46.1 µM]
COc1ccc(S(=O)(=O)N2CCC(C(=O)NCCc3ccccc3)CC2)cc1OC	0.5%	-6%	7%	2%	1%	-9%	1%	0%
(next part)
SMILES	Cruzain inh Det	LASV entry inh	RE007 growth inh	NS1 inh	SARS PLP yeast	2A StopGo	Cruzain noTriton	MARV entry inh
C=C1CC2(OC1=O)c1ccccc1CCc1ccccc12	nt	20µM*	0%	nt	nt	22µM*	nt	?
COC(=O)Nc1[nH]ncc1[N+](=O)[O-]	nt	15%	-4%	2%	0%	12%	nt	3%[46.1 µM]
COc1cccc(NC(=O)NCc2ccc(F)cc2)c1	nt	1%	8%	nt	5%	0%	nt	-12%[46.1 µM]
CCOc1ccccc1NC(=O)CN1CCCN(Cc2cccc(Cl)c2)S1(=O)=O	-7.3%	-13%[46.1 µM]	nt	nt	nt	-9%	14%	nt
O=C(COC(=O)c1ccc(F)c(S(=O)(=O)N2CCCCC2)c1)NCc1ccc(F)cc1	nt	-1%	16%	nt	-5%	0%	nt	-3%
COc1ccc(-c2nnn(Cc3ccccc3F)n2)cc1	-9.3%	3%	-24%	-2%	-22%	26%	1%	-1%
Cc1c(C(=O)NCC(c2ccc(Cl)cc2)N2CCOCC2)oc2ccccc12 (configuration not stated)	-8.3%	-18%[46.1 µM]	nt	nt	nt	-22%	?	-29%[46.1 µM]
